# Screening data (PubChem BioAssay)
# NOMO-1 viab = NOMO-1 AML cell viability reduction, primary screen, STK33 inhibitor project, CellTiter-Glo luminescence. NOMO-1 AML viability, 72 h. inhibition, % (test concentration not listed). 7.5% of 37,000 active. AID 2330, 2010;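 active = most replicates above 80%; inconclusive = exactly half above 80%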;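 also: wells of about 30 µL received 25 nL stock; 0% = median of vehicle wells and 100% = reference inhibitor level; the first replicate is given; inactives centre near 10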
# Starred values were filed as active, the others as inactive; ? = inconclusive. A portion of the library; the hit share may differ from the screen's.
SMILES,NOMO-1 viab
C[C@@H]1CN([C@H](C)CO)C(=O)Cc2cc(NC(=O)CCN3CCOCC3)ccc2O[C@@H]1CN(C)CC1CCCCC1,7.3
Cc1ccc(S(=O)(=O)N(C)C[C@H]2Oc3c(NC(=O)c4nc5ccccc5s4)cccc3C(=O)N([C@@H](C)CO)C[C@H]2C)cc1,28.2
COc1ccc(OC)c(C(=O)CSc2nnc(-c3ccncc3)n2-c2ccc(C)cc2)c1,20.3
C[C@H](CO)N1C[C@H](C)[C@@H](CN(C)S(=O)(=O)c2ccc(F)cc2)Oc2c(NC(=O)Nc3cccc4ccccc34)cccc2C1=O,35.7
COc1cc(NC(=O)CN(C)S(=O)(=O)c2cc(Cl)ccc2Cl)cc(OC)c1,-0.7
Cn1c(SCC(=O)c2ccc([N+](=O)[O-])cc2)nnc1-c1cccs1,9.0
Cc1ccc([N+](=O)[O-])cc1NC(=O)CSC1=NCCS1,21.4
Clc1cc(Cl)cc(Oc2nc(-c3ccccc3)ns2)c1,11.8
CC(=O)N1CCc2nc(SCC(=O)Nc3cccc(C#N)c3)c(C#N)c(C(F)(F)F)c2C1,-7.7
C[C@@H]1CN([C@@H](C)CO)C(=O)Cc2cc(NC(=O)Cn3cnnn3)ccc2O[C@@H]1CN(C)Cc1ccccc1,-20.2

# Rewritten field by field: entries from further up
> COc1cc(NC(=O)CN(C)S(=O)(=O)c2cc(Cl)ccc2Cl)cc(OC)c1
  NOMO-1 viab: -0.7
> Cn1c(SCC(=O)c2ccc([N+](=O)[O-])cc2)nnc1-c1cccs1
  NOMO-1 viab: 9.0
> Cc1ccc([N+](=O)[O-])cc1NC(=O)CSC1=NCCS1
  NOMO-1 viab: 21.4
> Clc1cc(Cl)cc(Oc2nc(-c3ccccc3)ns2)c1
  NOMO-1 viab: 11.8

# (cont.)
SMILES,NOMO-1 viab
C[C@H](CO)N1C[C@H](C)[C@H](CN(C)CC2CC2)Oc2c(NC(=O)C3CC3)cccc2C1=O,-4.7
COc1ccc(S(=O)(=O)N(C)C[C@@H]2OCCCC[C@@H](C)Oc3ccc(NS(=O)(=O)c4ccc(F)cc4)cc3C(=O)N([C@H](C)CO)C[C@@H]2C)cc1,63.5
O=C(O)c1cc(C23CC4CC(CC(C4)C2)C3)ccc1O,14.6
COc1ccc(S(=O)(=O)N(C)C[C@@H]2Oc3ccc(NC(=O)CCCCCC(=O)Nc4ccccc4N)cc3CC(=O)N([C@H](C)CO)C[C@H]2C)cc1,14.6
O=c1cc(O)n(Cc2ccco2)c(=S)[nH]1,-13.4
CCc1c(O)c(Cc2ccccc2)c(=O)n(-c2nccs2)c1-c1ccccc1,32.7
COc1ccccc1CCNC(=O)c1cc(-c2ccccn2)nc2ccc(Br)cc12,24.6
CCn1c(SCC(=O)c2ccc(OC)cc2)nnc1-c1ccccc1Cl,24.5
NNC(=O)CCCSc1nc2ccccc2s1,9.5
Cc1c(Cl)c(C(F)(F)F)nn1CC(=O)Nc1ccc(C#N)cc1,6.3
C[C@H]1CN([C@@H](C)CO)C(=O)Cc2cc(NC(=O)C3CC3)ccc2O[C@@H]1CN(C)Cc1ccc(C(=O)Nc2ccccc2N)cc1,54.7
COC(=O)[C@@H](NC(=O)c1cc(C)on1)C(C)C,21.6
Cc1ccc(S(=O)(=O)N2C(=O)CCC2C(=O)Nc2cc(C(F)(F)F)ccc2Cl)cc1 (stereo unspecified),12.6
CC(=O)c1c(C)nn(CC(O)COc2ccc3ccccc3c2)c1C (stereo unspecified),6.4
C[C@H]1CN([C@@H](C)CO)C(=O)Cc2cc(NC(=O)Nc3ccc(F)cc3)ccc2O[C@H]1CN(C)C(=O)Nc1ccccc1,5.9
CC(=O)c1ccc(NC(=O)CSc2nc(-c3ccccc3)c(C#N)c(=O)[nH]2)cc1,-34.1
CCOc1ccc(C)cc1S(=O)(=O)NCC1CCCO1 (stereo unspecified),11.7
C[C@@H]1CN([C@@H](C)CO)C(=O)Cc2cc(NC(=O)Nc3ccccc3)ccc2O[C@@H]1CN(C)Cc1ccc(Oc2ccccc2)cc1,77.7
COc1cccc(NC(=O)C(C)N(c2ccc(Cl)cc2)S(C)(=O)=O)c1 (stereo unspecified),11.2
Cc1cc(C)cc(OCC(=O)Nc2cc(-c3nc4ccccc4s3)ccc2C)c1,14.8
COc1ccc(OC)c(N(CC(=O)Nc2cccc(C(F)(F)F)c2)S(C)(=O)=O)c1,-25.1
COc1cc2c3cc1Oc1c(OC)c(OC)cc4c1[C@@H](Cc1ccc(OC(=O)c5ccc([N+](=O)[O-])cc5)c(c1)Oc1ccc(cc1)C[C@@H]3N(C)CC2)N(C)CC4,98.2*
Cc1noc(C)c1NC(=O)Nc1ccc2c(c1)C(=O)N([C@H](C)CO)C[C@@H](C)[C@@H](CN(C)C(=O)Nc1ccccc1)O2,25.4
C[C@@H]1CN([C@H](C)CO)C(=O)c2cc(NC(=O)Cn3cnnn3)ccc2O[C@H]1CN(C)S(=O)(=O)c1cccs1,-8.3
Cc1ccc([N+](=O)[O-])cc1N(CC(=O)Nc1ccccc1Cl)S(C)(=O)=O,28.1
C[C@H]1CN([C@@H](C)CO)C(=O)c2cc(NC(=O)Nc3cccc4ccccc34)ccc2O[C@@H]1CN(C)Cc1ccc2c(c1)OCO2,15.2
CCc1cc2c(SCC(=O)O)ncnc2s1,39.4
C[C@@H]1CCCCO[C@@H](CN(C)C(=O)Nc2ccccc2)[C@@H](C)CN([C@H](C)CO)C(=O)c2cc(NC(=O)Nc3cccc4ccccc34)ccc2O1,12.2
CC(C)NC(=O)N(C)C[C@@H]1OCCCC[C@@H](C)Oc2ccc(NC(=O)c3ccncc3)cc2C(=O)N([C@H](C)CO)C[C@@H]1C,-16.5
Cc1noc(C)c1NC(=O)N(C)C[C@@H]1Oc2ccc(NC(=O)C3CCCCC3)cc2C(=O)N([C@H](C)CO)C[C@H]1C,-2.5
C[C@@H]1CCCCO[C@@H](CN(C)S(=O)(=O)c2ccccc2)[C@@H](C)CN([C@H](C)CO)C(=O)c2cc(NS(=O)(=O)c3cn(C)cn3)ccc2O1,4.9
O=S(=O)(CCSc1nc2ccccc2o1)c1nc2ccccc2s1,126.8*
Cc1noc(C)c1NC(=O)N(C)C[C@H]1Oc2c(NC(=O)NC(C)C)cccc2C(=O)N([C@@H](C)CO)C[C@H]1C,19.0
C[C@@H]1CN([C@H](C)CO)C(=O)c2cccc(NC(=O)Nc3ccccc3)c2O[C@H]1CN(C)Cc1ccc(-c2ccccc2)cc1,62.9
Cc1ccc(C(=O)O)cc1S(=O)(=O)N1CCC(C(=O)O)CC1,-22.8
CN(C)CCOC(=O)COc1ccc(Cl)cc1,-14.8
C[C@@H]1CN([C@H](C)CO)C(=O)c2cc(NC(=O)NC3CCCCC3)ccc2O[C@H]1CN(C)Cc1ccc(C(F)(F)F)cc1,39.7
CCOC(=O)Cc1c(C)nc(Cc2ccc(OC(C)C)cc2)[nH]c1=O,3.6
C[C@H]1CN([C@@H](C)CO)C(=O)c2cccc(NC(=O)Nc3ccc(F)cc3)c2O[C@@H]1CN(C)Cc1ccccc1,100.8*
C[C@@H]1CN([C@H](C)CO)C(=O)c2cc(NS(C)(=O)=O)ccc2O[C@H]1CN(C)Cc1ccc(Oc2ccccc2)cc1,39.5
COc1cc(=O)oc(C(C)C(C)O)c1CO (stereo unspecified),-5.2
Cc1ccc(S(=O)(=O)N(C)C[C@H]2Oc3ccc(NC(=O)CCCN(C)C)cc3C(=O)N([C@H](C)CO)C[C@@H]2C)cc1,9.6
CC(C)(C)C(=O)CSc1nc2ccccc2c(=O)n1CC1CC1,44.4
C[C@@H]1CN([C@H](C)CO)C(=O)Cc2cc(NC(=O)CCN3CCOCC3)ccc2O[C@H]1CN(C)Cc1ccc2c(c1)OCO2,28.4
Cc1ccc(CC(CC(=O)O)C(=O)Nc2ccccc2I)cc1 (stereo unspecified),22.2
Cc1ccc(N(C(C)C(=O)Nc2cccc([N+](=O)[O-])c2)S(C)(=O)=O)cc1C (stereo unspecified),3.1
COc1ccc(S(=O)(=O)Nc2cccc3c2O[C@@H](CN(C)Cc2ccncc2)[C@@H](C)CN([C@H](C)CO)C3=O)cc1,6.0
COc1ccc(Cl)cc1N1CCN(CCNC(=O)Nc2ccccc2C)CC1,39.9
Cc1ccc(Nc2nc(C)cc(C)c2C(N)=O)cc1,-8.1
COc1cc2c(cc1OC)[C@@H]1C(=O)c3ccc4c(c3O[C@@H]1CO2)CCC(C)(C)O4,44.3

# (listing goes on)
SMILES,NOMO-1 viab
CCN1C(=O)/C(=C2\SC(=S)N(c3cccc(Cl)c3)C2=O)c2ccccc21,?
Cc1cc(C)c2c(CC(=O)NCc3ccco3)coc2c1,23.0
CNC(=O)CN(c1ccccc1C)S(=O)(=O)c1ccc(Cl)cc1,20.6
CCOc1ccccc1NC(=O)CN1C(=O)c2ccc([N+](=O)[O-])cc2C1=O,-15.7
CC(=O)N(Nc1ccccc1)c1ccccc1,4.5
COc1ccc(S(=O)(=O)N(C)C[C@H]2Oc3c(NC(=O)CCCCCC(=O)Nc4ccccc4N)cccc3C(=O)N([C@H](C)CO)C[C@@H]2C)cc1,44.8
C[C@@H]1CN([C@@H](C)CO)C(=O)c2cccc(N(C)C)c2O[C@@H]1CN(C)Cc1ccc(C(F)(F)F)cc1,5.3
C[C@H]1CN([C@@H](C)CO)C(=O)Cc2cc(NC(=O)Nc3cccc4ccccc34)ccc2O[C@H]1CN(C)Cc1ccccc1,46.3
Cc1cccc(C)c1-n1c(C2CC3CCC2O3)n[nH]c1=S (stereo unspecified),32.9
Cc1ccc(S(=O)(=O)Nc2ccc3c(c2)CC(=O)N([C@H](C)CO)C[C@H](C)[C@H](CN(C)S(=O)(=O)c2cccs2)O3)cc1,39.6

# Looked up one by one from the list above (two):
SMILES,NOMO-1 viab
C[C@@H]1CN([C@H](C)CO)C(=O)c2cc(NC(=O)Cn3cnnn3)ccc2O[C@H]1CN(C)S(=O)(=O)c1cccs1,-8.3
Cc1ccc(S(=O)(=O)N2C(=O)CCC2C(=O)Nc2cc(C(F)(F)F)ccc2Cl)cc1 (stereo unspecified),12.6

# Look-ups from the list.
# NOMO-1 viab result of `CNC(=O)CN(c1ccccc1C)S(=O)(=O)c1ccc(Cl)cc1` reads 20.6
# NOMO-1 viab result of `Cc1cc(C)c2c(CC(=O)NCc3ccco3)coc2c1` reads 23.0
# NOMO-1 viab result of `C[C@H]1CN([C@@H](C)CO)C(=O)Cc2cc(NC(=O)Nc3cccc4ccccc34)ccc2O[C@H]1CN(C)Cc1ccccc1` reads 46.3
# NOMO-1 viab result of `CC(=O)N(Nc1ccccc1)c1ccccc1` reads 4.5
# NOMO-1 viab result of `CCOc1ccccc1NC(=O)CN1C(=O)c2ccc([N+](=O)[O-])cc2C1=O` reads -15.7
# NOMO-1 viab result of `Cc1ccc(S(=O)(=O)Nc2ccc3c(c2)CC(=O)N([C@H](C)CO)C[C@H](C)[C@H](CN(C)S(=O)(=O)c2cccs2)O3)cc1` reads 39.6

# Other structures follow.
SMILES,NOMO-1 viab
O=S(=O)(NC(c1ccccc1)c1ccccc1)c1ccccc1,43.6
Nc1ccc2oc(-c3ccccc3)nc2c1,37.1
COc1ccc(NC(=O)Nc2cccc3c2O[C@H](CN(C)CC2CC2)[C@@H](C)CN([C@H](C)CO)C3=O)cc1,30.1
C[C@@H]1CN([C@@H](C)CO)C(=O)c2cc(NC(=O)Nc3ccc4c(c3)OCO4)ccc2O[C@@H]1CN(C)C(=O)Nc1ccc(F)cc1,5.7
C[C@@H]1CN([C@@H](C)CO)C(=O)c2cccc(NS(C)(=O)=O)c2O[C@H]1CN(C)Cc1ccc(C(=O)O)cc1,-6.7
COc1ccc(NC(=O)Nc2ccc3c(c2)C(=O)N([C@@H](C)CO)C[C@H](C)[C@H](CN(C)Cc2ccc(C(=O)O)cc2)O3)cc1,5.8
C[C@@H]1CN([C@H](C)CO)C(=O)Cc2cc(NS(=O)(=O)c3ccccc3)ccc2O[C@H]1CN(C)C(=O)Nc1cccc2ccccc12,1.5
Cc1cc(N(CC(=O)Nc2ccc(F)cc2F)S(C)(=O)=O)ccc1Br,-3.2
C[C@@H]1CN([C@H](C)CO)C(=O)c2cccc(NC(=O)c3cnccn3)c2O[C@H]1CN(C)Cc1ccc(Oc2ccccc2)cc1,25.6
C/C(=N\O)C12CC3(C)CC(C)(CC(C)(C3)C1)C2,120.2*
C=Cc1cncc2c(=O)n3c(cc12)-c1[nH]c2ccccc2c1CC3,25.8
COCCn1c(-c2ccccc2)nc(=S)c2c1CC(C)(C)OC2,-4.7
CCOC(=O)CSc1n[nH]c(-c2ccc(Cl)cc2)n1,118.6*
Cc1noc(C)c1S(=O)(=O)Nc1cccc2c1O[C@H](CN(C)C(=O)NC(C)C)[C@H](C)CN([C@H](C)CO)C2=O,3.5
CC(C)NC(=O)Nc1ccc2c(c1)C(=O)N([C@H](C)CO)C[C@H](C)[C@H](CN(C)C(=O)Nc1cccc3ccccc13)OCCCC[C@@H](C)O2,3.1
COC(=O)c1ccccc1NC(=O)Cc1coc2cc(C)cc(C)c12,5.7
COc1ccccc1C1CC(c2ccc(C)cc2)=NN1C(=O)CCC(=O)O (stereo unspecified),8.0
CC(C)NC(=O)N(C)C[C@H]1Oc2ccc(NC(=O)C3CC3)cc2C(=O)N([C@H](C)CO)C[C@H]1C,-16.4
COC(=O)c1c[nH]c(=S)n1C,12.7
CCn1c(SCC(=O)Nc2ccc(Br)cc2)nnc1-c1ccccc1,-9.7
COC(=O)c1cc(OC)c(OC)cc1NC(=O)COc1ccc(OC)cc1,2.3
COc1ccc(NC(=O)N(C)C[C@@H]2Oc3c(NC(=O)Nc4ccc5c(c4)OCO5)cccc3C(=O)N([C@@H](C)CO)C[C@@H]2C)cc1,24.4
CN1CCN(C(=O)c2ccccc2NC(=O)CCN2C(=O)c3ccccc3C2=O)CC1,45.0
C[C@@H]1CN([C@H](C)CO)C(=O)c2cccc(NC(=O)c3ccc(-c4nccs4)cc3)c2O[C@H]1CN(C)S(=O)(=O)c1ccc(Cl)cc1,6.7
CC(=O)NCCOc1ccccc1Cl,-23.7
Cc1ccc(S(=O)(=O)N(C)C[C@H]2Oc3ccc(NS(=O)(=O)c4ccccc4)cc3CC(=O)N([C@H](C)CO)C[C@H]2C)cc1,20.3
C[C@@H]1CN([C@@H](C)CO)C(=O)Cc2cc(NS(=O)(=O)c3ccc(F)cc3)ccc2O[C@@H]1CN(C)Cc1ccncc1,17.1
